PABP FP inh = PABP poly(A) RNA binding inhibitors, primary screen, biochemical, fluorescence polarization, uHTS; Polyadenylate-binding protein 1 (Homo sapiens), P11940; inhibition, % at 35 µM; 290,000 compounds, 1% hits;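 active = 50% or more with normal probe brightness, or confirmed in later tests; inconclusive = above 50% with abnormal brightness, or retests that disagree; inactive = below 50% or failed in later tests; about a fifth of its hits are not listed in these tables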;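 note: calls also rest on retests at 20 µM and on dose response follow-up; controls were probe without protein and protein plus probe with vehicle; some compounds called inactive have numbers as strong as hits; many hits fall short of the cut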
Rce1 inh = yeast Rce1p protease inhibitors, primary screen, biochemical, fluorescence, cell-free homogeneous. CAAX prenyl protease 2 (Saccharomyces cerevisiae (strain ATCC 204508 / S288c)), Q03530. yeast membranes, quenched prenylated peptide cleavage fluorescence. calls only. 290,000 compounds, 0.27% hits;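 active = fall in fluorescence gain of 50% or more versus controls, with final raw signal at or below 3038400; inconclusive = same 50% fall but final raw signal above 3038400; inactive = fall in fluorescence gain under 50%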;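 note: plate controls were neutral control wells for no effect and wells lacking membranes for full effect; tested at 10 µM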
Target sequence (Q03530 whole entry, looked up): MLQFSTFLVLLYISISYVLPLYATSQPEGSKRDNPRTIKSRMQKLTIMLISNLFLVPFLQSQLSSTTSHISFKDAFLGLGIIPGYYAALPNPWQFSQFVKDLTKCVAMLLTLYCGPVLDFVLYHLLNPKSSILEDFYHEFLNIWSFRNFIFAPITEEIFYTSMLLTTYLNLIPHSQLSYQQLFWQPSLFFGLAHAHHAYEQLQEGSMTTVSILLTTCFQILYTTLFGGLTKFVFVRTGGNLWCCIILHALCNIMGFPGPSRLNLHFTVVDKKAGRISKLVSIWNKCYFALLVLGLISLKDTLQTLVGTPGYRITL
Env fusion inh = inhibitors of HIV-1 Env-driven cell-cell fusion, primary screen, HeLa-JRFL effector, CEM21 target cells, luciferase | inhibition, % at 12.3 µM | 360,000 compounds, 1.1% hits | AID 651610, 2012;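 active = mean replicate inhibition score of at least 50 and every replicate individually at or above 50; inconclusive = only one of the two criteria met; inactive = mean below 50 and not all replicates reaching 50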;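 note: 0% = plate neutral controls and 100% = maraviroc near 300 nM; one replicate is shown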
MT1-MMP act inh = blockers of MT1-MMP proenzyme processing, primary screen, HT1080 RFP-PRO-GFP cells, GFP/RFP fluorescence; Matrix metalloproteinase-14 (Homo sapiens), P50281; GFP/RFP ratio fluorescence, overnight; percent of plate control window, DMSO zero; GFP/RFP ratio change, % at 20 µM; 360,000 compounds, 0.061% hits; AID 651647, 2012;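 active = GFP/RFP ratio change of at least 30% with cell ATP level not reduced by more than half and red fluorescence within 50% of control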; note: strong numbers were not always called active
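Assay system: HT1080 RFP-PRO-GFP cells. Benchmarks: DMSO vehicle wells and RFP-L50D-GFP reporter cell wells. Times: overnight cell settling, then overnight compound exposure, 37 °C, 5% CO2. Compound: 20 µM single dose, 1% DMSO. Read-out basis: GFP/RFP fluorescence ratio.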
Yeast UUG start = modulators of yeast start codon fidelity, primary screen, whole organism, S. cerevisiae, single point, plate reader; S. cerevisiae UUG-firefly luciferase reporter, luminescence/redox ratio; activity score, % at 18.7 µM; 350,000 compounds, 0.13% hits; AID 602363, 2012;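 active = replicate mean at a twofold rise or more, about +100% in these data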;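 note: firefly luciferase made from a UUG start codon reports start codon fidelity; reporter light over untreated wells divided by growth signal over untreated wells; some hits fall short of that in this replicate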
CSC inhib = cancer stem cell viability inhibitors, primary screen, luminescence; cancer stem cell-like cells viability; inhibition, % at 7.5 µM; 300,000 compounds, 1.1% hits;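 active = mean at 75% or more and at least half the replicates too; inconclusive = mean and replicates disagree; tested in HMLE shEcad cells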;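 note: 0% = median of negative and 100% = median of positive control wells; the first replicate is given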
eIF4H FP inh = human eIF4H binding inhibitors, primary screen, translation initiation inhibitor project, biochemical, uHTS, fluorescence polarization; Eukaryotic translation initiation factor 4H (Homo sapiens), Q15056; eIF4H fluorescence polarization binding assay; inhibition, % at 35 µM; 290,000 compounds, 0.94% hits;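 active = 50% or more with normal probe brightness, or confirmed in later tests; inconclusive = above 50% with abnormal brightness, or retests that disagree; inactive = below 50% or failed in later tests; about a fifth of its hits are not listed in these tables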;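 note: calls also rest on retests at 20 µM and on dose response follow-up; 0% = protein and probe with vehicle and 100% = probe without protein; strong numbers were not always called active; many hits fall short of the cut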
eIF4H FP inh retest = recorded beside eIF4H FP inh, whose call it bears; inhibition, %; compound at 20 µM; confirmation average;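 mean of two retest wells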
PABP FP inh retest = also measured in PABP FP inh; calls as there; inhibition, %; compound at 20 µM; confirmation repeats;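 mean of two retest wells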
MT1-MMP act inh RFP = recorded beside MT1-MMP act inh, whose call it bears; RFP signal change, %; measured here: RFP expression control read;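 0 = vehicle wells; hits needed this value within 50% of zero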
* hit, by the source's call; i = inactive; ? = inconclusive; · = no result given; & = joins results of further samples; [ ] = another dose, or the depositor's remark. The list is partial, so the mix of outcomes need not match the whole.

SMILES	PABP FP inh	Rce1 inh	Env fusion inh	MT1-MMP act inh	MT1-MMP act inh RFP	Yeast UUG start	CSC inhib	eIF4H FP inh	others
CCCCOC(=O)/C=C/c1ccc(OC(=O)OC)c(OC(=O)OC)c1	-18	i	·	-15	-17	·	-3	-8
CC1(C)C(=O)Nc2ccccc2N1C(=O)COC(=O)CSc1ccc(Cl)cc1	·	·	6	-5	-1	19	0	·
O=S(=O)(Nc1ccccc1O)c1ccc(-c2ccccc2)cc1	7	i	16	1	-12	·	28	2
CC1CCCC(NC(=O)C2c3ccccc3C(=O)N2Cc2cccs2)C1C (stereo not drawn)	-6	i	?	-5	0	-12	-6	-2
O=C(Nc1nncs1)C1CC(=O)N(CCc2ccc(F)cc2)C1 (stereo not drawn)	6	i	-10	-1	4	-6	11	-2
Clc1ccc2c(c1)nc1n2CCCC1	3	i	-17	5	1	·	-6	0
COc1ccc(-c2ccc3nnc(SCC(=O)Nc4ccc(NC(C)=O)cc4)n3n2)cc1	·	i	-50	5	-3	·	15	·
Cc1cc(C)n(C(=O)/C(C#N)=N/Nc2cc(Cl)cc(Cl)c2)n1	-3	i	·	-9	-35	·	1	-5
Cc1ccc(OCC(=O)Nc2ccc(S(=O)(=O)Nc3onc(C)c3C)cc2)cc1	5	i	28	-3	2	·	-6	-9
Cc1ccc(OCCCC(=O)Nc2ccc(S(=O)(=O)Nc3cc(C)nc(C)n3)cc2)cc1	1	i	8	2	0	-2	-7	2
CCC1(c2ccc(F)cc2)NC(=O)N(CC(=O)Nc2ccccc2C)C1=O (stereo not drawn)	0	i	-62	6	3	-10	-10	-3
CC(Oc1cccc(Cl)c1)C(=O)Nc1cc(Cl)ccc1N1CCOCC1 (stereo not drawn)	·	i	20	-6	-10	-9	2	·
O=C(Cc1ccc(Cl)c(Cl)c1)Nc1ccc(SC(F)F)cc1	-3	·	0	3	-3	-11	75*	0
COc1ccc(Cc2nc3ccc(C(=O)N(C)CCn4ccnc4)cc3o2)cc1OC	-5	i	-41	-1	-2	-9	4	-6
C/C(=N\NS(=O)(=O)c1ccc(C)c([N+](=O)[O-])c1)c1cc2ccccc2o1	1	i	-16	·	·	-2	1	-11
O=C(Cn1cccc1C(=O)c1ccccc1)NCCC1=CCCCC1	1	i	-5	-1	-2	·	3	4
OCCN1CCN(C(=S)Nc2cccc(C(F)(F)F)c2)CC1	-2	i	-1&12	2&1	4&0	-7	0	-3
C[C@H](CO)N1C[C@H](C)[C@@H](CN(C)Cc2ccc(Cl)c(Cl)c2)OCCCC[C@H](C)Oc2ccc(NC(=O)CCC(F)(F)F)cc2C1=O	·	·	14[16.7 µM]	-4	-7	-4&19	·	·
C#Cc1ccc(C(=O)Nc2ccc(N3CCC(C)CC3)c(C(N)=O)c2)cc1	44	i	32	4	0	·	5	0
CCOc1ccc(S(=O)(=O)N2CCOCC2)cc1NC(=O)CSCC(=O)Nc1ccc(C)cc1	4	i	27	1	2	0	0	-3
CCn1c(SCC(=O)Nc2cc3oc4ccccc4c3cc2OC)nnc1-c1cccs1	-6	i	37	0	0	-6	6	-7
O=C(Nc1cccc2ccccc12)c1cccc([N+](=O)[O-])c1	2	i	-22	3	4	-2	-2	-4
CCOc1ccc(OCCC(=O)Nc2ccc(N3CCOCC3)cc2N2CCOCC2)cc1	·	·	?	-1	1	-4	·	·
CN(C)S(=O)(=O)c1cc(NC(=O)COC(=O)Cc2cccc3ccccc23)ccc1Cl	-8	i	·	6	2	·	0	14
CC1CC(C)CN(CCC(=O)Nc2cccc(Cl)c2)C1 (stereo not drawn)	3	i	-2	3	0	-9	9	4
COc1ccc(NC(=S)NCc2cccnc2)cc1	4	i	0	0	4	·	-8	-6
CCOC(=O)C1=C(C)Nc2ccccc2N=C1NC(=O)C1CCN(C(=O)c2ccccc2C)CC1	·	·	-17	0	3	1	-13	·
O=C(O)C(=O)Nc1nc(-c2ccc3c(c2)OCCO3)cs1	6	i	-13	3	6	-8	-9	-9
CCCc1nc2sc3c(=O)[nH]cnc3c2c2c1CCCC2	-11	i	-2	·	·	·	-25	0
COc1c(C)cc(C(=O)C2CCCN(C(=O)C3=C(C)OCCO3)C2)cc1C (stereo not drawn)	-1	i	-17	0	-3	1	-11	1
CCOc1ccc(Nc2nnc(SCc3nc4ccccc4c(=O)[nH]3)s2)cc1	-9	i	-3	-4	0	·	14	0
CCCNC(=O)CN1C(=O)c2ccccc2Sc2ncccc21	7	i	-24	-4	0	-17	-3	-5
Cc1ccc2c(CC(=O)NCC(=O)Nc3c(C)cccc3C)coc2c1	·	i	-36	-1	2	·	-9	·
CC(C)(C)NC(=O)/C(=C\c1ccc(Br)cc1)NC(=O)c1cccs1	7	i	·	3	5	-20	-16	-4
N#CCC(CNc1ncc(C(F)(F)F)cc1Cl)OC(=O)c1cccc([N+](=O)[O-])c1 (stereo not drawn)	8	i	-22	1	3	-14	-11	-4
O=C1CSC(c2cn(-c3ccccc3)nc2-c2cccs2)N1Cc1ccccc1 (stereo not drawn)	-14	i	·	·	·	·	-8	4
Cc1cc[n+](-c2[nH]c(=O)sc2/C=N/N=C(\[O-])c2ccncc2)cc1	74*	i	-3	-5	3	-14	-10	100*	eIF4H FP inh retest=109*;PABP FP inh retest=91*
S=c1[nH]nc(-c2ccco2)n1-c1cccc2ccccc12	-7	i	·	0	-3	-17	·	-10
COCCCNC(=O)Cn1nnc(-c2ccccc2NC(=O)c2ccccc2F)n1	-5	i	·	-3	-1	-1	-6	-11
CCc1nnc(NC(=O)CSc2nc3cccnc3n2C2CCCCC2)s1	-7	i	·	2	-2	-10	30	-8
CCN(CC)c1ccc2c(c1)oc(=O)c1c(Cl)cc(=O)oc12	?	i	·	-119	-13	-15	51	?
CCOc1cc(CNc2ccc(N3CCCCC3)cc2)cc(Br)c1OCC(=O)NC(C)(C)C	7	i	15	10	5	-9	45	4
Cc1cccc2nc(-c3ccco3)oc(=O)c12	-1	i	-7	0	1	-7	-6	0
COC(=O)c1ccc([C@@H]2C[C@H]3CN(Cc4cccnc4)C(=O)[C@]34CCCN24)cc1	16	i	-4	-5	0	8	-15	27
Cc1ccccc1S(=O)(=O)N1CCN(c2ccc3c(c2)C2CC3CCN2C(=O)OCc2ccccc2)CC1 (stereo not drawn)	·	·	13	3	-6	-15	·	·
CNc1ccc(/C=C(\C#N)c2ccccn2)cc1[N+](=O)[O-]	6	i	-17	2	1	-13	6	?
CC1CCN(c2ccc3nnc(CCC(=O)Nc4ccc(F)cc4)n3n2)CC1	-1	i	-1	-1	-4	-4	-5	-11
c1cc(-c2ccc(N3CCOCC3)cc2)n2ccnc2c1	·	·	-16	0	2	-4	·	·
CC(C)Cn1c(N)c(/C=N/NC(=O)c2ccc(Cl)cc2)c(=O)n(C)c1=O	-17	i	4	6	8	-14	2	0
CCc1ccc(/C=C(\Cl)c2nc3cc(Cl)ccc3c(=O)[nH]2)cc1	7	i	-8	3	2	·	31	-6
CCn1c(CSc2nc3ccccc3s2)nnc1SCC(=O)c1ccc(O)cc1O	4	i	·	-1	-1	-21	11	6
O=C(NCc1ccc(Cl)cc1)c1n[nH]c([N+](=O)[O-])c1Cl	27	·	18	2	3	·	24	0
COc1ccc(CC(=O)OCc2cc(=O)n3cc(Br)ccc3n2)cc1OC	-15	i	-34	1	-7	·	4	-4
Cn1nnnc1SCC(=O)c1ccc(Br)s1	-10	i	·	2	11	-5	·	-6
Cn1c(=O)c2c(nc(SCCN3CCCCC3)n2C)n(C)c1=O	3	i	-49	-1	-1	-9	·	-5
C[N+]1(C)CC2([N+](=O)[O-])CC=C(Oc3ccccc3)C([N+](=O)[O-])(C2)C1 (stereo not drawn)	-5	i	-46	0	0	-22	5	21
CCS(=O)(=O)c1nc(S(=O)(=O)c2ccc(C)cc2)c(N2CCN(CCO)CC2)s1	0	i	4	0	6	-7	-16	-5
C=CCOc1ccccc1C1C2=C(CC(C)(C)CC2=O)Nc2c1c(=O)n(C)c(=O)n2C (stereo not drawn)	2	i	·	0	1	·	-4	2
Cc1ccc(NC(=O)c2sc3ncn(CC(=O)N4CCN(c5ccccn5)CC4)c(=O)c3c2C)cc1	·	·	-24	3	2	3	·	·
COc1ccc(-c2cc(C(F)(F)F)n3nc(C(=O)N4CCOCC4)nc3n2)cc1	-6	i	·	-3	-3	·	·	2

(cont.)
SMILES	PABP FP inh	Rce1 inh	Env fusion inh	MT1-MMP act inh	MT1-MMP act inh RFP	Yeast UUG start	CSC inhib	eIF4H FP inh	others
C/C=C/C(=O)Nc1nnc(-c2ccccc2C)s1	2	i	-12	-4	0	-2	-16	-3
CC1CCN(S(=O)(=O)N2CCC(C(=O)NCc3cccs3)CC2)CC1	-1	i	·	-1	1	·	-10	2
CCC(CO)NCc1ccc2c(c1)n(C)c(=O)n2C (stereo not drawn)	-6	i	-54	4	6	-7	-4	-2
O=C(CCS(=O)(=O)c1ccccc1)NNC(=O)COc1ccc(F)cc1	·	·	·	1	6	-11	-2	·
Cc1ccc(/C=N/NC(=O)Cn2cncn2)cc1	6	i	25	2	4	-1	·	-3
COc1ccc(CN2C(=O)CN(C3CCCCCC3)C(=O)C2c2ccc(F)cc2)cc1 (stereo not drawn)	5	i	20	0	-2	-23	-5	1
COc1cccc(N/C(N)=N/c2nc(C(F)(F)F)cc(=O)[nH]2)c1	-14	i	·	-2	1	-8	11	-19
CCN(Cc1ccccc1)C(=O)COC(=O)Cn1cnc2ccccc21	20	i	2	1	3	-18	-10	0
N#CCC(=O)N/N=C/c1ccc(OC2CSC2)cc1	6	i	-6	0	1	·	2	-3
CCOC(=O)c1ccc(NC(=O)CSc2nnc(C3CC3)n2C)cc1	28	i	·	4	1	-17	-12	7
COC(=O)C1=C(C)N(Cc2ccccc2)C(=O)N[C@H]1c1ccccc1	1	i	·	0	0	-17	3	-8
CC(C)(C)CCN1CCC(CN2CCNC(=O)C2=O)CC1	·	·	-19	2	3	-13	·	·
COc1ccccc1NC(=O)/C(N=Nc1ccc(C)c(S(=O)(=O)Nc2ccccc2Cl)c1)=C(\C)O	·	·	42	5	-11	-8	7	·
CCC1CCCCN1S(=O)(=O)c1ccc(-n2cnnn2)c(C)c1 (stereo not drawn)	3	i	-6	0	-1	-18	-10	-1
Cc1cc([N+](=O)[O-])c(NC2CCCCC2)c([N+](=O)[O-])c1	·	i	-149	1	-1	-7	8	·
CC(=O)N1c2ccc(S(=O)(=O)N(C)CC(=O)NCc3ccccc3)cc2CC1C (stereo not drawn)	·	i	-13	2	4	-7	-10	·
O=C(CSc1nc2ccccc2[nH]1)Nc1ccc2c(c1)OCCO2	1	·	·	6	1	-15	12	4
O=c1ccsn1Cc1ccccc1	-5	i	·	0	1	·	-5	-4

From PubChem BioAssay
